Compound activity deposited in PubChem BioAssay by several laboratories.
HSV augment = HSV replication enhancement. HSV replication augmentation in cells, fold increase. maximum fold increase. actives 0.005% (n = 220,000). AID 1956;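 active = peak rise of 1.5-fold or more in the series; inconclusive = self-fluorescent or not available for retest; tested in PC3 cells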;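 also: first round at 10 µM; read as green reporter fluorescence; hits show the peak of a series up to 25 µM; 1 = signal of infected wells without compound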
Insulin prom inh = TRM-6 insulin promoter activity inhibition | TRM-6 cells (human fetal islet line), insulin promoter-eGFP reporter, imaging; reporter expression induced with tamoxifen | inhibition, % at 2 µM | actives 0.9% (n = 130,000) | AID 1273;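 active = inhibition above the mean plus 3 SD, with well images judged a real hit on visual review, cut at about 60% in these data, passing the limit was not always enough; inconclusive = inhibition over the cutoff but images rejected on review; inactive = inhibition not above the cutoff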
PKD1 inh = inhibitors of human PKD1 kinase; AID 797; PKD1 kinase fluorescence polarization assay; inhibition, %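 (about 10 µM by stock and volumes)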; Q15139; actives 0.056% (n = 200,000);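 active = inhibition of 50% or more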;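 also: controls were vehicle for no effect and a reference inhibitor for full effect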
Target sequence (Q15139 whole entry, looked up): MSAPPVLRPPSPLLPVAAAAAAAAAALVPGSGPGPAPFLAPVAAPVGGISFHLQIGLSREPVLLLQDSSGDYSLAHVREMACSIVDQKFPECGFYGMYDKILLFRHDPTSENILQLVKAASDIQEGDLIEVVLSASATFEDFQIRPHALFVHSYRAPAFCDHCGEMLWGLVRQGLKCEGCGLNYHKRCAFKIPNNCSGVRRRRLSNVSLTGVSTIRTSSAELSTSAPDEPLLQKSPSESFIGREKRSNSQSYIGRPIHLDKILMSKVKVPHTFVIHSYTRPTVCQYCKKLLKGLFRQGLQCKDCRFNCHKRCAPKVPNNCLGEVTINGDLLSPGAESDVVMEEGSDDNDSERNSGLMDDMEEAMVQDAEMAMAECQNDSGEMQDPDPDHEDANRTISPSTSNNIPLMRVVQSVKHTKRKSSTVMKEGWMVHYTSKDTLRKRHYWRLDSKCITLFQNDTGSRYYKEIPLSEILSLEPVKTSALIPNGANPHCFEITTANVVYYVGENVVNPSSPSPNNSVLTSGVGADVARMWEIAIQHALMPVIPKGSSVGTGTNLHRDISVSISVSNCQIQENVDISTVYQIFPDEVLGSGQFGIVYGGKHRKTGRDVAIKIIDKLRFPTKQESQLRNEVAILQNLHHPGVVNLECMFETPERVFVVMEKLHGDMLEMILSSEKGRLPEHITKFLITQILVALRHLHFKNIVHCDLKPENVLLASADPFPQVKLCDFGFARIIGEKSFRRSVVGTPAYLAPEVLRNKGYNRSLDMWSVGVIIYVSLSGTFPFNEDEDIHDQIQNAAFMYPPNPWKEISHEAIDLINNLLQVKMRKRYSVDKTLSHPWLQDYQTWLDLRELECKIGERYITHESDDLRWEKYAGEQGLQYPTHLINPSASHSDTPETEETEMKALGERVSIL
GALR2 agonist = GALR2 (human) receptor agonism; O43603; GALR2-expressing cells, agonist activation read-out; activation, %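 (tested at 5 µM)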; actives 0.48% (n = 140,000); AID 803;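 active = above mean plus 3 SD of all compounds, about 5% in these data, not always enough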;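 also: 0% = vehicle buffer wells and 100% = reference agonist at full effect; tested in CHO reporter cells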
RGS16-Gao = RGS16-Galphao interaction regulator (human); O15492+P09471; bead-based flow cytometry RGS16-Galphao binding, fluorescence; actives lie on both sides; binding response (% of control), % at 10 µM; actives 0.38% (n = 220,000); AID 1441;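 active = below 25% or above 175%, edge rows of some plates excepted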;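 also: Galphao activated by GDP with aluminum fluoride before binding; 100% = wells without compound and 0% = beads without RGS; some results beyond the cut were filed as inactive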
Insulin prom inh cell count = second read-out of Insulin prom inh, no call of its own (marks repeat the call); normalized cell count, %; measured here: cell count, toxicity; reference of the scale not given here;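 cells exposed to compound for 48 h; stained nuclei by imaging scaled within each plate; lower means fewer cells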
HSV augment primary fold = recorded beside HSV augment, whose call it bears; fold increase; compound at 10 µM; measured here: primary screen fold increase 10 uM; tested in PC3 cells;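 GFP signal in the first replicate; 1 = infected wells without compound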
Starred values were filed as active, the others as inactive; i = inactive; ? = inconclusive; · = no result given.

SMILES	HSV augment	HSV augment primary fold	Insulin prom inh	Insulin prom inh cell count	PKD1 inh	GALR2 agonist	RGS16-Gao
Cn1ncc(N=Cc2ccc([N+](=O)[O-])cc2)c1C(=O)N1CCOCC1	i	0.81	-7	84	4	-0.9	108
O=C(O)CCCNC(=O)/C(=C\c1ccc(Cl)cc1)NC(=O)c1ccccc1Br	i	0.96	·	·	-4	·	104
Cc1cccc(C(=O)NCc2ccc(S(N)(=O)=O)cc2)c1[N+](=O)[O-]	i	1	49	138	-13	-0.3	103
COc1ccc(/C=C/C(=O)Nc2cc(C)on2)cc1	i	0.94	14	165	-8	-0.5	102
Cc1c(NC(=S)NC(NC(=O)C(C)(C)C)C(Cl)(Cl)Cl)c(=O)n(-c2ccccc2)n1C (stereo not drawn)	i	1.2	·	·	-8	-0.1	105
CCOc1ccc(C(=O)C[n+]2ccccc2C)cc1	i	1.1	·	·	5	0.4	103
CC1=Nc2ccc(C)c3nc(C)cc(c23)N1c1ccc(C)cc1	i	1.1	·	·	-3	-1.1	112
CCCn1c(=O)n(N)c2ccccc21	i	0.97	-27	71	7	-0.9	113
Cc1nc(SCc2ccccc2)c2ccsc2n1	i	0.96	·	·	2	·	99
CN(C)C(=O)c1c(-c2ccccc2)oc2ccc(O)cc12	i	0.89	·	·	-3	-1.6	122
CCC(=O)NCCc1nc2ccccc2[nH]1	i	0.96	-11	111	1	-4.3	101
CC(C)c1ccc(N2C(=O)/C(=C/N(C)C)SC2=S)cc1	?	·	·	·	·	·	97
CCn1c(CC(=O)Nc2ccc(C)cc2)nnc1SCC(=O)NCc1ccccc1	i	1	-58	107	-4	-3.9	100
Cn1c(CC2Sc3ccccc3NC2=O)nnc1SCC(=O)c1ccc(Cl)cc1 (stereo not drawn)	i	1	·	·	·	·	93
COc1ccccc1C(CCN(Cc1cccs1)C(C)=O)c1ccco1 (stereo not drawn)	i	0.95	13	155	-23	-1.7	99
COc1ccc(S(=O)(=O)NCCC(=O)NCc2ccccc2)cc1	i	1.1	·	·	-9	-2.5	88
Cc1[nH]nc(N=CC2=C(O)CC(C)(C)CC2=O)c1-c1ccc(Cl)cc1	i	0.89	16	69	-10	-1.2	107
CCOC(=O)c1ccc(NC2c3ccccc3C(=O)N2c2ccc(C)cn2)cc1 (stereo not drawn)	i	0.87	·	·	3	-1.1	106
CCc1ccc(OCc2nnc(SCC(=O)Nc3cccc(C(=O)N4CCOCC4)c3)o2)cc1	i	0.96	·	·	-7	-0.8	100
CCOc1ccc(OCC)c(-c2c(=O)n(OCc3ccc(Cl)cc3)c3ccccc3[n+]2[O-])c1	i	1.1	-87	137	-9	-1.5	81
CCOc1ccc(NC(=S)N2CCc3cc(OC)c(OC)cc3C2COc2ccc3c(C)cc(=O)oc3c2)cc1 (stereo not drawn)	i	0.93	·	·	2	1.1	101
Cc1c(CNCCC2=CCCCC2)c(C(=O)O)c(C)n1Cc1ccccc1	i	1	·	·	8	·	102
CC(C)CC(=O)NC(=S)Nc1ccc(F)cc1F	i	0.85	20	153	2	·	106
CC(C)(C)NC(=O)CSc1ccc(C(C)(C)C)cc1	i	0.8	17	114	-8	-1.9	97

In the list so far, these have a halogen.
SMILES	HSV augment	HSV augment primary fold	Insulin prom inh	Insulin prom inh cell count	PKD1 inh	GALR2 agonist	RGS16-Gao
O=C(O)CCCNC(=O)/C(=C\c1ccc(Cl)cc1)NC(=O)c1ccccc1Br	i	0.96	·	·	-4	·	104
Cc1c(NC(=S)NC(NC(=O)C(C)(C)C)C(Cl)(Cl)Cl)c(=O)n(-c2ccccc2)n1C (stereo not drawn)	i	1.2	·	·	-8	-0.1	105
Cn1c(CC2Sc3ccccc3NC2=O)nnc1SCC(=O)c1ccc(Cl)cc1 (stereo not drawn)	i	1	·	·	·	·	93
Cc1[nH]nc(N=CC2=C(O)CC(C)(C)CC2=O)c1-c1ccc(Cl)cc1	i	0.89	16	69	-10	-1.2	107
CCOc1ccc(OCC)c(-c2c(=O)n(OCc3ccc(Cl)cc3)c3ccccc3[n+]2[O-])c1	i	1.1	-87	137	-9	-1.5	81
CC(C)CC(=O)NC(=S)Nc1ccc(F)cc1F	i	0.85	20	153	2	·	106

The listing continues.
SMILES	HSV augment	HSV augment primary fold	Insulin prom inh	Insulin prom inh cell count	PKD1 inh	GALR2 agonist	RGS16-Gao
Cc1cc(NS(=O)(=O)c2ccc(NC(=S)Nc3ccc(Cl)cc3C)cc2)no1	i	1.2	·	·	·	·	107
C/C(CCC(=O)O)=N/Nc1ccc([N+](=O)[O-])cc1[N+](=O)[O-]	i	0.97	-188	10	-6	-0.8	83
C=CCn1c(NC(=O)c2ccc(Br)o2)c(C(=O)OCC)sc1=S	i	1.2	·	·	-3	0.2	104
COc1ccc(/C=C/C(=O)OCC(=O)NCCC2=CCCCC2)cc1OC	i	1	·	·	-2	·	93
CCOC(=O)C(=Cc1ccc(-n2ccnc2)cc1)C(=O)OCC	i	0.67	·	·	-4	·	-2.5*
Cc1occc1C(=O)NNC(=S)NCc1ccccc1	i	0.86	0	70	11	-0.6	106
O=C(NCC(c1cccs1)N1CCOCC1)c1ccccc1NS(=O)(=O)c1ccc(Cl)cc1 (stereo not drawn)	i	1.2	·	·	7	0.2	103
O=C(OCC(=O)N1CCCC1)c1cccs1	i	0.94	-10	97	8	-0.7	101
CC(=O)n1cc(Nc2ccc([N+](=O)[O-])cc2)c2ccccc21	i	1.2	·	·	2	·	97
O=C(CN1CCN(c2ccc(Cl)cc2)CC1)N1CCCC1	i	0.91	-24	110	-7	-1.2	101
Fc1ccc(CN2CCN3CCCC3C2C2CCCCC2)cc1F (stereo not drawn)	i	1.1	-59	59	4	-2.0	99
CCOC(=O)c1cnc(SC)nc1Oc1cccc(NS(=O)(=O)c2ccc(Cl)cc2)c1	i	0.76	29	95	-6	-2.2	110
C/C(=N\n1nnnc1Nc1ccccc1)c1ccc(N)cc1	i	0.91	-29	76	9	-2.1	99
Cc1ccccc1C(=O)Nc1ccc(N2CCCC2)cc1	i	1	·	·	-5	·	149
O=C(OCc1nc2ccccc2s1)c1cnccn1	i	0.94	·	·	-14	-0.5	133
NC(=O)c1ccccc1N/C=C1\CCCCC1=O	i	0.92	·	·	0	·	107
CC(C)Cc1nc2oc3c(NCC(C)O)ncnc3c2c2c1CCCC2 (stereo not drawn)	i	0.9	·	·	·	·	96
CC1=C(CCN2CCN(C(C)C)C(CCO)C2)C(C)(C)CCC1 (stereo not drawn)	i	0.91	·	·	-11	·	103
CCS(=O)CCSC(=N)N (stereo not drawn)	i	0.93	7	119	-6	0.3	105
Cc1cccc(OCC(=O)OCC(=O)c2c(N)n(C)c(=O)n(C)c2=O)c1	i	0.99	-38	102	1	-2.0	108
O=C(Nc1cccc(C(F)(F)F)c1)C1CCCO1 (stereo not drawn)	i	0.68	·	·	-7	·	100
CCc1ccccc1NC(=O)CN(C)Cc1nc(N)nc(Nc2ccccc2C)n1	·	·	·	·	-2	0.5	100
COc1ccc(OC)c(Nc2nc(-c3sc(C)nc3C)cs2)c1	i	0.86	-31	90	11	0.5	142
Nc1ccn(Cc2cccc(Cl)c2)n1	i	1.1	25	46	-7	·	96

Entries of single compounds, looked up by structure:
CCS(=O)CCSC(=N)N (stereo not drawn) as listed: HSV augment: i; HSV augment primary fold: 0.93; Insulin prom inh: 7; Insulin prom inh cell count: 119; PKD1 inh: -6; GALR2 agonist: 0.3; RGS16-Gao: 105
CC1=C(CCN2CCN(C(C)C)C(CCO)C2)C(C)(C)CCC1 (stereo not drawn) as listed: HSV augment: i; HSV augment primary fold: 0.91; Insulin prom inh: ·; Insulin prom inh cell count: ·; PKD1 inh: -11; GALR2 agonist: ·; RGS16-Gao: 103

The list continues:
SMILES	HSV augment	HSV augment primary fold	Insulin prom inh	Insulin prom inh cell count	PKD1 inh	GALR2 agonist	RGS16-Gao
CC(C)OC(=O)c1nn2c(C(F)(F)F)cc(-c3ccc(Br)o3)nc2c1Br	i	1.2	8	62	1	0.8	102
COc1ccc(-n2c(N)c(C(=O)NCc3ccco3)c3nc4ccccc4nc32)cc1OC	i	0.66	43	117	-6	1.4	104
O=C(CCc1nnc(CCCCc2ccccc2)o1)NCCCc1cccnc1	i	1.1	46	64	-2	·	103
CCOC(=O)c1cnc(-n2nc(C)cc2C)nc1NCc1ccccc1	i	0.58	-21	121	-7	-0.4	109
O=C(Nc1ccc(Cl)cn1)c1cc2ccccc2o1	i	0.8	10	203	0	-1.8	105
COc1cccc(-c2nc(CS(=O)CC(=O)NCc3ccccc3)c(C)o2)c1 (stereo not drawn)	i	0.71	·	·	0	-2.0	96
CC(C)OC(=O)/C(=C\C=C\c1ccccc1)NC(=O)c1ccccc1	i	0.93	-10	136	3	-1.3	94
O=C(O)C1CCCN1S(=O)(=O)c1cc(Cl)ccc1Cl (stereo not drawn)	i	1.2	7	85	-19	-2.0	110
COc1cc(/C=N/NC(=O)c2ccc(CSc3nncn3C)cc2)cc(OC)c1O	i	0.92	27	183	-5	·	99
CN(C(=O)CCc1nc2ccccc2s1)c1ccccc1	i	0.87	-158	107	-5	-2.1	100
COc1ccc(N/C=C2\C(=O)CCc3c2oc2cc(Cl)c(O)c(Cl)c32)cc1	i	1.2	·	·	·	·	96
c1ccc(NC2=Nc3ccccc3CC2)cc1	i	1	19	63	-2	-1.8	100
COc1cc(/C=C/CN2CCN(Cc3ccc(C)o3)C(CCO)C2)ccc1O (stereo not drawn)	i	0.93	·	·	-14	·	103
Cc1ccc(NC(=O)CCNS(=O)(=O)c2ccccc2)c(C(=O)c2ccccc2)c1	i	0.88	-67	139	0	0.3	104
CCCCN(C(=O)CSc1nnc(-c2ccco2)o1)c1c(N)n(Cc2ccccc2)c(=O)[nH]c1=O	i	0.97	·	·	·	·	93
CN(C(=O)c1cccc(N2C(=O)C3CC=CCC3C2=O)c1)C1CCCCC1 (stereo not drawn)	i	0.96	·	·	-18	-3.7	101
CN1CCc2nc(NC(=O)c3cccc(OC(F)F)c3)sc2C1	i	1.1	29	54	-1	-0.6	89
CCN(Cc1ccc(OC)c(F)c1)C(=O)CCl	i	1.1	·	·	-7	·	102
O=C(OCc1nnc(-c2ccc(Cl)cc2)o1)C12CC3CC(CC(O)(C3)C1)C2	i	0.96	·	·	-3	·	102
COc1ccc(/C=C/C(=O)C2CC2)cc1COc1c(C)cccc1C	i	0.85	13	114	0	·	91
Cn1nccc1C(=O)N1CCN(c2ccc(F)cc2)CC1	i	0.94	62	112	-2	-1.0	110
Cc1ccc(S(=O)(=O)N2CC(O)C[C@H]2C(=O)OCC(=O)c2ccccc2)cc1 (stereo partly drawn)	i	0.98	38	71	4	-0.3	154
CC(=NC(C)C)C1=C(O)CCC1=O	i	0.86	43	106	-5	-1.0	93
O=C(O)CCSC(=S)N1CCOCC1	i	1.1	·	·	·	·	94
N#CC1=C(N)Oc2cc3ccccc3cc2C1c1cccs1 (stereo not drawn)	i	1	-35	133	1	-2.0	105
O=C(NCCc1c[nH]c2ccccc12)C1CCC(Cn2c(=S)[nH]c3ccccc3c2=O)CC1 (stereo not drawn)	i	0.79	-40	112	-8	0.6	109
COc1ccc(/C=C/C(=O)Nc2ccccc2C(=O)O)cc1	i	1.1	35	87	-4	·	88
O=C(NCc1ccco1)c1cccn2c(=O)c3c4c(sc3nc12)CCCC4	·	·	-23	95	-2	0.3	102
O=C(CN1CCCC1)N1CCCc2ccccc21	i	1.1	·	·	-6	·	107
Cc1ccc(S(=O)(=O)Nc2ccc(C(N)=O)cc2)cc1[N+](=O)[O-]	i	0.98	-173	94	8	·	112
CCOc1ccc(-c2c(C#N)c(N)nc3sc(C(=O)c4ccccc4)c(N)c23)cc1	i	1.1	·	·	·	·	104
CCn1c(=N)n(CC(O)c2ccco2)c2ccccc21 (stereo not drawn)	i	1.2	62	101	-15	-1.9	108
CCCCNc1ccc(S(=O)(=O)c2cccc([N+](=O)[O-])c2)cc1[N+](=O)[O-]	i	0.83	·	·	-1	-1.7	101
O=C(O)c1cc(Cl)c(Cl)cc1C(=O)N1CCCC1	i	0.9	37	96	-2	-0.5	94
O=C(Oc1ccc(-c2cnc3ccccc3n2)cc1)c1ccc(Br)o1	i	1	-7	92	-5	-1.2	77

Single values from the list:
Value for `CC(C)OC(=O)c1nn2c(C(F)(F)F)cc(-c3ccc(Br)o3)nc2c1Br` in Insulin prom inh: 8
Value for `O=C(NCCc1c[nH]c2ccccc12)C1CCC(Cn2c(=S)[nH]c3ccccc3c2=O)CC1` (stereo not drawn) in PKD1 inh: -8
